Bioassay records deposited in PubChem by several laboratories.
MT1-MMP act inh: inhibitors of human MT1-MMP activation; HT1080 RFP-PRO-GFP cells, GFP/RFP ratio fluorescence, overnight; percent of plate control window, DMSO zero; GFP/RFP ratio change, % at 20 µM; 360,000 compounds, 0.061% hits; AID 651647;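 active = GFP/RFP ratio change of at least 30% with cell ATP level not reduced by more than half and red fluorescence within 50% of control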; also: strong numbers were not always called active
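Assay system: RFP-PRO-GFP reporter HT1080 cells; read-out basis: GFP/RFP fluorescence ratio; benchmarks: DMSO wells and RFP-L50D-GFP cells; doses: 20 µM single dose, 1% DMSO; schedule: overnight cell settling, then overnight compound exposure, 37 °C, 5% CO2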
eIF4H FP inh: inhibitors of RNA binding by human eIF4H; Q15056; eIF4H fluorescence polarization binding assay; inhibition, % at 35 µM; 290,000 compounds, 0.94% hits; AID 2012;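 active = 50% or more with normal probe brightness, or confirmed in later tests; about a fifth of its hits are not listed in these tables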;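 also: calls also rest on retests at 20 µM and on dose response follow-up; 0% = protein and probe with vehicle and 100% = probe without protein; strong numbers were not always called active; many hits fall short of the cut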
UUG fidelity: alters start codon recognition fidelity in yeast; 350,000 compounds, 0.13% hits; activity score, % at 18.7 µM; S. cerevisiae UUG-firefly luciferase reporter, luminescence/redox ratio; AID 602363;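 active = replicate mean at a twofold rise or more, about +100% in these data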;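 also: firefly luciferase made from a UUG start codon reports start codon fidelity; reporter light over untreated wells divided by growth signal over untreated wells; some hits fall short of that in this replicate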
Rce1 inh: blocks yeast Ras-converting enzyme | Q03530 | yeast membranes, quenched prenylated peptide cleavage fluorescence | calls only | 290,000 compounds, 0.27% hits | AID 2563;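 active = fall in fluorescence gain of 50% or more versus controls, with final raw signal at or below 3038400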;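 also: plate controls were neutral control wells for no effect and wells lacking membranes for full effect; tested at 10 µM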
Target sequence (Q03530 whole entry, looked up): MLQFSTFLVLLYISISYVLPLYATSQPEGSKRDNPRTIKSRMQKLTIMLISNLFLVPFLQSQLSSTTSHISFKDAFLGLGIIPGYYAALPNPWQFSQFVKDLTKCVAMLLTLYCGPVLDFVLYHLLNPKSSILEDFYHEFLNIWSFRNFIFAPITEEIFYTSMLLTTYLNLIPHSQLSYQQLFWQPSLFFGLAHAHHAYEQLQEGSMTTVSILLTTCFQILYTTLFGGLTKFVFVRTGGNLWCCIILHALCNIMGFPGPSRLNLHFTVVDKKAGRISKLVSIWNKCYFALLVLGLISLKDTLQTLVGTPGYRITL
PABP polyA inh: PABP-poly(A) binding inhibition | AID 2014 | inhibition, % at 35 µM | PABP-poly(A) RNA binding, fluorescence polarization | 290,000 compounds, 1% hits | P11940;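 active = 50% or more with normal probe brightness, or confirmed in later tests; about a fifth of its hits are not listed in these tables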;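 also: calls also rest on retests at 20 µM and on dose response follow-up; controls were probe without protein and protein plus probe with vehicle; some compounds called inactive have numbers as strong as hits; many hits fall short of the cut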
Target sequence (P11940 whole entry, looked up): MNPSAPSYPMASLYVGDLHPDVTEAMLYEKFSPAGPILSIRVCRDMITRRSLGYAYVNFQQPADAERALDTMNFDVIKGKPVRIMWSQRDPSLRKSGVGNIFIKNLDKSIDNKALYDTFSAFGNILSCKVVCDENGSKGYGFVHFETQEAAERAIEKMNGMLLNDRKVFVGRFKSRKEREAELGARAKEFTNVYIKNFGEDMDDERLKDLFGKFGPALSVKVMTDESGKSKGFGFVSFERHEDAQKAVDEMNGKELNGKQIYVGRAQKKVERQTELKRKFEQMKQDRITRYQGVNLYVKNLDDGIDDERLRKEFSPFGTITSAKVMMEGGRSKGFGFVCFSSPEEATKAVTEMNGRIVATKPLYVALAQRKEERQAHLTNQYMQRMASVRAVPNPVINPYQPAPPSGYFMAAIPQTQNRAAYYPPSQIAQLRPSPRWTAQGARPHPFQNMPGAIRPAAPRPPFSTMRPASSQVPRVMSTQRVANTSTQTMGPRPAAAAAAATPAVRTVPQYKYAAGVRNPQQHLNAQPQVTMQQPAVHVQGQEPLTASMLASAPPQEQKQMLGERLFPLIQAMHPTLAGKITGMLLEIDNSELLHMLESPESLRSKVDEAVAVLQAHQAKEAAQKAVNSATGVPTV
CSC inhib: blocks cancer stem cells; inhibition, % at 7.5 µM; cancer stem cell-like cells viability, luminescence; 300,000 compounds, 1.1% hits;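 active = mean at 75% or more and at least half the replicates too; tested in HMLE shEcad cells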;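 also: 0% = median of negative and 100% = median of positive control wells; the first replicate is given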
Env fusion inh: inhibitors of HIV Env-mediated cell fusion | HeLa-JRFL Env/CEM21 cell fusion, luciferase | 360,000 compounds, 1.1% hits | AID 651610 | inhibition, % at 12.3 µM;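 active = mean replicate inhibition score of at least 50 and every replicate individually at or above 50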;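 also: 0% = plate neutral controls and 100% = maraviroc near 300 nM; one replicate is shown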
eIF4H FP inh retest: recorded beside eIF4H FP inh, whose call it bears; inhibition, %; compound at 20 µM; confirmation average;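 mean of two retest wells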
PABP polyA inh retest: second read-out of PABP polyA inh, no call of its own (marks repeat the call); inhibition, %; compound at 20 µM; confirmation repeats;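 mean of two retest wells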
MT1-MMP act inh RFP: also measured in MT1-MMP act inh; calls as there; RFP signal change, %; measured here: RFP expression control read;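 0 = vehicle wells; hits needed this value within 50% of zero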
Active calls of the source: *; i = inactive; · = no result given.

SMILES	MT1-MMP act inh	MT1-MMP act inh RFP	eIF4H FP inh	UUG fidelity	Rce1 inh	PABP polyA inh	CSC inhib	Env fusion inh	others
CCC(=O)N1CCc2cc(S(=O)(=O)NCCC(=O)N3CCN(c4cccc(OC)c4)CC3)ccc21	-1	-5	1	5	i	12	5	-1
O=C(CSCc1ccc([N+](=O)[O-])cc1)N/N=C/c1cccnc1	0	1	-3	7	i	-3	2	21
CCCCn1c(N)c(N(CC(C)C)C(=O)c2cc(C)oc2C)c(=O)[nH]c1=O	-2	1	-2	-8	i	14	-7	2
COc1cc(S(=O)(=O)N2CCCCCC2)ccc1-n1cnnn1	7	-2	3	18	i	6	-8	·
CN(Cc1ccccc1)C(=O)c1cccnc1	0	3	1	-17	i	4	-4	-7
CC(C)c1ccc(-c2c(NCCc3ccccc3)c(=O)c2=O)cc1	2	-2	12	-10	i	-2	-3	-5
COc1cc2sc3cc(NCc4ccc5c(c4)OCO5)ccc3c(=O)c2cc1OC	5	-8	·	-16	·	·	34	-34
COc1ccc(-c2cnc(N)nc2-c2ccc(OC)cc2)cc1	-12	-8	-13	-14	i	-7	-4	36
CC1CCCC(C)N1S(=O)(=O)c1ccc(S(=O)(=O)NCCc2ccncc2)cc1 (stereo not drawn)	2	-10	-4	-10	i	-17	-18	·
Cc1c(NC(=O)C(=O)/C=C(\O)c2ccc(Br)cc2)c(=O)n(-c2ccccc2)n1C	-1	1	-6	·	i	2	-6	-18
COC(=O)c1ccc(Nc2nnc(-c3ccc(C)c(S(=O)(=O)NCC4CCCO4)c3)c3ccccc23)cc1 (stereo not drawn)	-1	-7	-6	-7	i	-2	16	-14
CCCCn1c(SCC2CCCO2)nc2cc(S(N)(=O)=O)ccc21 (stereo not drawn)	1	0	1	-3	i	-3	-9	·

Sorted by number of heavy atoms (rising): part of the list above
SMILES	MT1-MMP act inh	MT1-MMP act inh RFP	eIF4H FP inh	UUG fidelity	Rce1 inh	PABP polyA inh	CSC inhib	Env fusion inh	others
O=C(CSCc1ccc([N+](=O)[O-])cc1)N/N=C/c1cccnc1	0	1	-3	7	i	-3	2	21
CCCCn1c(SCC2CCCO2)nc2cc(S(N)(=O)=O)ccc21 (stereo not drawn)	1	0	1	-3	i	-3	-9	·
CCCCn1c(N)c(N(CC(C)C)C(=O)c2cc(C)oc2C)c(=O)[nH]c1=O	-2	1	-2	-8	i	14	-7	2
Cc1c(NC(=O)C(=O)/C=C(\O)c2ccc(Br)cc2)c(=O)n(-c2ccccc2)n1C	-1	1	-6	·	i	2	-6	-18
COc1cc2sc3cc(NCc4ccc5c(c4)OCO5)ccc3c(=O)c2cc1OC	5	-8	·	-16	·	·	34	-34

More structures follow:
SMILES	MT1-MMP act inh	MT1-MMP act inh RFP	eIF4H FP inh	UUG fidelity	Rce1 inh	PABP polyA inh	CSC inhib	Env fusion inh	others
CC(CC(=O)Nc1ccncc1)c1ccccc1 (stereo not drawn)	4	1	-4	-9	i	3	-9	-9
COc1ccc(CCNC(=O)CCN2C(=O)C3CC=CCC3C2=O)cc1OC (stereo not drawn)	-4	-5	10	-9	i	1	7	-35
CCOC(=O)c1c(C)[nH]c(C(=O)OCC(=O)NCCc2ccc(OCC)c(OCC)c2)c1C	-7	-2	·	-15	i	·	16	3
Cc1cc(NC(=O)COC(=O)CCNS(=O)(=O)c2ccccc2)n(-c2ccccc2)n1	0	2	·	-11	i	·	-4	-13
CCCNc1nc2c(c(=O)n(C)c(=O)n2C)n1Cc1cccc(C)c1	4	-15	-4	·	i	14	-11	·
COC(=O)c1ccc(C2/C(=C(\O)c3cccc(OC)c3)C(=O)C(=O)N2CCCN(C)C)cc1 (stereo not drawn)	1	3	6	·	i	-2	-4	-30
CCCCN(C(=O)CN1CC(C)OC(C)C1)c1c(N)n(CC(C)C)c(=O)[nH]c1=O (stereo not drawn)	5	4	6	·	i	2	-15	-17
COc1cccc(CC2(CO)CCCN(Cc3ccc(CO)o3)C2)c1 (stereo not drawn)	-4	1	-2	-3	i	-4	7	-9
COc1ccc(S(=O)(=O)N2CCOCC2)cc1NC(=O)CSc1nnc(C2CC2)n1C	5	0	·	-10	·	·	-5	·
O=C(CC1OC(=O)c2ccccc21)Nc1ccccc1N1CCOCC1 (stereo not drawn)	0	3	-5	-21	i	6	-4	·
COc1ccc(/C=C/C(=O)NC(=S)Nc2cc([N+](=O)[O-])ccc2O)cc1OC	2	1	82	·	i	2	8	-8	eIF4H FP inh retest=-2;PABP polyA inh retest=-1
CC(C)Oc1ccc(C(=O)NCCCNC(=O)c2ccccn2)cc1	-1	1	-5	-8	i	0	·	0
Cc1ccccc1CN1C(=O)CSc2ccc(C(=O)N3CCOCC3)cc21	2	8	4	1	i	1	-4	·
O=c1c2cc(N3CCOCC3)ccc2[nH]c(=S)n1CCCN1CCCCCC1	-2	0	13	1	i	14	1	-27
CCC(=O)Nc1ccc2ccccc2c1	1	-1	0	-9	i	-9	-9	·
Cc1ccc(C(=O)OC(C)C(=O)NC2CCCCC2C)cc1S(=O)(=O)N1CCCCC1 (stereo not drawn)	-9	-25	-14	1	i	-1	-5	9
NS(=O)(=O)c1ccc2nc(NC(=O)Nc3ccccc3F)sc2c1	1	1	16	-24	i	-9	-13	-244
CCSc1nnc(Cn2c(=O)sc3ccccc32)n1-c1ccccc1C	1	3	5	-21	i	9	·	-18
CCCN(CCC)CCCNC(=O)c1cc2c(=O)[nH]c3ccccc3c2n1C	1	1	13	·	i	16	5	1
Nc1nc2ccccc2nc1N1CCCC1	-4	-3	0	-9	i	9	-4	·
Cc1cc2ccccc2nc1SCC(=O)N1c2ccccc2CC1C (stereo not drawn)	-2	-6	1	·	i	-12	-11	·
CCC(C(=O)OC)n1cnc2c(nnn2-c2ccccc2)c1=O (stereo not drawn)	-2	-1	-6	-7	i	-5	-7	10
CN1CCN(c2ccc(NC(=O)CN3CCOCC3)cc2F)CC1	-2	-3	2	·	i	5	11	2
O=C(COc1ccccc1Cl)N1N=C(c2cccs2)CC1c1ccco1 (stereo not drawn)	-1	2	·	-13	·	·	-5	-8
O=C(NCc1ccccn1)Nc1cc(Cl)cc(Cl)c1	2	-4	-6	-18	i	-13	7	-1
CCc1ccc(-c2n[nH]c(=O)c3ccccc23)cc1	0	-13	-15	-1	i	-1	-6	4
COc1cccc(-c2cnc(C(O)c3cc(C)cc(C)c3)[nH]2)c1 (stereo not drawn)	1	2	·	-15	·	·	·	-27
CCc1nc2ccc(C(=O)NCCc3ccccn3)cn2c1N(C)CCC(C)C	-2	-1	·	-24	·	·	·	-25
CCN(C(=O)COC(=O)c1cc(NS(=O)(=O)c2ccc(Cl)c([N+](=O)[O-])c2)ccc1O)C1CCCCC1	0	1	0	·	i	10	3	7
O=C(c1cccnc1)n1nc(NCc2ccccc2)nc1NCc1ccccc1	3	-1	-17	-4	i	0	-9	22
Fc1cccc(-c2cncc(N3CCN(CCN4CCCC4)CC3)n2)c1	4	3	·	-23	·	·	·	0
COc1cccc(NC(=O)c2ccccc2-c2ccccc2)c1	-4	-2	13	-10	i	-4	-5	-3
CC1(C(=O)NNC(=O)c2cccc([N+](=O)[O-])c2)CC1Br (stereo not drawn)	2	3	·	4	·	·	·	18
NS(=O)(=O)c1ccc(CCNC(=O)C2CCC(CNS(=O)(=O)c3ccc(Br)s3)CC2)cc1 (stereo not drawn)	-3	-1	-16	·	i	-5	-10	5
Cc1ccc(C2N(c3ccccc3)C(=O)N3CCCN23)cc1 (stereo not drawn)	-2	-1	0	·	i	0	1	5
COc1cc(CNc2ccc(O)cc2)cc(Br)c1OCc1ccccc1F	·	·	24	-2	i	-13	-8	·
CCCN1C(=O)C(NC(C)=O)c2ccccc21 (stereo not drawn)	-1	2	9	-14	i	-3	-5	-50
COc1ccc(C(=O)COC(=O)CNC(=O)c2ccc(Cl)cc2Cl)c(OC)c1	4	2	·	15	i	·	-10	-13
CCCOc1ccc2c3c(c(=O)oc2c1)CCCC3	-3	-3	8	-8	i	7	-9	·
CC(C)OP(=O)(c1ccc(N(C)C)cc1)C(O)c1cccnc1 (stereo not drawn)	-4	2	2	·	i	-2	-12	5
Cc1nn(C(C)C(=O)NCc2ccc(Cl)cc2)c(=O)c2cc3occc3n12 (stereo not drawn)	3	4	-3	-40	i	-1	-10	1
CCCCN1CC(N2CCN(C3CCN(C)CC3)CC2)CS1(=O)=O (stereo not drawn)	3	6	·	4	·	·	·	0
O=C(Cn1cnc2ccccc21)Nc1cccc(S(=O)(=O)N2CCCC2)c1	11	-27	·	-13	·	·	0	·
Cc1ccc(-c2c(C#N)c(N)nc3c2CCCC3)s1	-3	4	-6	-24	i	1	-8	-36
CCCN(CC(=O)Nc1ccc(F)c(F)c1F)C(=O)CN1C(=O)NC2(CCCCC2)C1=O	-4	-1	·	-6	·	·	·	12
O=C(NCc1ccc(Cl)cc1)c1cc(-c2cccs2)on1	-2	4	-10	-1	i	-38	·	9
CC1=C(C(=O)Nc2ccccc2F)C(c2ccsc2)C2=C(CC(C)(C)CC2=O)N1 (stereo not drawn)	-3	-4	-4	·	·	-3	48	-31
C=CCOc1c(Cl)cc(/C=N/O)cc1OC	-5	-3	-1	4	i	0	-5	·
CC(N=C1NS(=O)(=O)c2ccccc21)C(=O)NCc1ccc2c(c1)OCO2 (stereo not drawn)	2	-1	-13	-2	i	-3	-11	·
Cc1cc(C)nc(N2CCCC(C(=O)Nc3cc(F)ccc3C)C2)n1 (stereo not drawn)	-1	-1	-1	-14	i	6	-6	-51
CCOc1ccc(CN(C)CC(=O)Nc2ccccc2C(=O)NC2CC2)cc1	5	0	·	-11	·	·	·	-5
COC(=O)c1ccc(COc2ccc(Cl)cc2)o1	2	4	10	-19	i	6	-2	-8
CCC(Cc1ccccc1)NC(=O)C1CCC(CNc2c(N3CCCC3)c(=O)c2=O)CC1 (stereo not drawn)	-2	2	-8	-13	i	4	-5	6
O=C(c1cccs1)N1CCN=C1SCc1ccc(F)cc1	0	0	-4	·	i	-7	-21	-23
Cc1nc2ccccc2cc1OCc1ccccc1	1	-13	-1	-13	i	-11	-6	10
COC(=O)c1sccc1NC(=O)Nc1cccc(Cl)c1Cl	0	-3	-15	-10	i	-14	-4	·
NC(=O)CSc1nnc(-c2cnccn2)n1Cc1ccco1	-4	2	-4	-14	i	4	-11	-12
COc1cc2c(c(OC)c1OC)C(c1ccccc1C)CC(=O)O2 (stereo not drawn)	-2	3	·	-7	·	·	·	31
COc1ccc(OC)c(S(=O)(=O)Nc2c(C)nn(C)c2C)c1	1	1	·	-6	·	·	-13	·
Cc1c(S(=O)(=O)N2CCN(c3cccc(C(F)(F)F)c3)CC2)c(=O)n(C)c(=O)n1C	-1	-3	3	14	i	15	-5	-3
(cont.)
SMILES	MT1-MMP act inh	MT1-MMP act inh RFP	eIF4H FP inh	UUG fidelity	Rce1 inh	PABP polyA inh	CSC inhib	Env fusion inh	others
COc1ccc(OC)c(NC(=O)N[C@H](Cc2ccccc2)C(=O)NN)c1	-1	-1	-3	·	i	-8	·	-10
CC(NC(=O)c1ccco1)C(=O)NC(C)c1cc(F)c(Cl)cc1Cl (stereo not drawn)	-3	-3	2	-21	i	10	-6	-2
CC(C)N(Cc1nc(-c2ccccc2)no1)C(=O)C(C)(C)C	-6	-4	-10	3	i	-5	-9	·
CC(C)(C)OC(=O)N1CCC(C(=O)Nc2cccc(C(=O)NCCCCc3ccccc3)c2)CC1	-2	-13	·	-15	·	·	·	38
C/C(=C1/SC(N2CCOCC2)=NC1=O)c1ccc(Br)cc1	-1	8	-4	-17	i	-4	-9	·
CCCCn1c(N)c(N(CCOC)C(=O)COC(=O)COc2c(C)cccc2C)c(=O)[nH]c1=O	0	4	·	·	i	·	·	3

These rows are one share of the data; count on the stated rates, not on these rows.
